Screens as filed in PubChem BioAssay.
MLL AF4-AF9 inh – inhibitors of AF4 peptide binding to AF9, primary screen, biochemical, AlphaScreen, biotin-AF4 peptide, FLAG-AF9, single point | Protein AF-9 (Homo sapiens), P42568 | inhibition, % at 10 µM | 350,000 compounds, 0.47% hits | AID 651704, 2012;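 active means every replicate reaching a set inhibition limit, whatever the replicate mean, cut at about 25% in these data; inconclusive means mean inhibition reaches that limit but some replicates miss it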;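 further: 0% = plate neutral control median and 100% = total signal loss; the record names both 10 and 1 µM as test concentration; the first replicate is given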
FGF22 binding – binders of human FGF22 protein, primary screen, FGF22 synaptogenesis inhibitor project, biophysical, thermal shift, single point; Fibroblast growth factor 22 (Homo sapiens), Q9HCT0; recombinant FGF22 thermal shift, SYPRO orange fluorescence; percent of sucrose octasulfate shift, DMSO zero; calls only at 9.99 µM; 340,000 compounds, 1.5% hits; AID 651658, 2012;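 active means melting point raised past a set limit in the mean and every replicate; inconclusive means no clear call; three in four hits are not shown here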
Target sequence (Q9HCT0 whole entry, looked up): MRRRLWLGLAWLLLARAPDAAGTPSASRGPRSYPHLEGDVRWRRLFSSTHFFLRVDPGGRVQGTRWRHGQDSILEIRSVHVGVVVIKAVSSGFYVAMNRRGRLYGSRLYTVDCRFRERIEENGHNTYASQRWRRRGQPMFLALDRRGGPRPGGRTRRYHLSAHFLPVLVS
RanGTP-Impb inh – inhibitors of RanGTP-importin-beta interaction, primary screen, biochemical, FRET, CFP-Ran, YFP-importin-beta, homogeneous; Ran GTPase (GTP-bound) - importin-beta complex; inhibition, % (no concentration beside the values); AID 2216, 2009; 300,000 compounds, 1.1% hits; cell-free CFP-Ran/YFP-importin-beta FRET ratio;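 active means most replicates above 15%; inconclusive means exactly half above 15%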;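 further: 0% = DMSO wells and 100% = Ran loaded with GDP instead of GTP; wells of about 40 µL received 100 nL stock; the first replicate is given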
UCH37 inh – inhibitors of human UCH37 deubiquitinase, primary screen, biochemical, Ub-AMC cleavage, fluorescence; Ubiquitin carboxyl-terminal hydrolase isozyme L5 (Homo sapiens), Q9Y5K5; purified proteasome/UCH37; inhibition, % (no concentration beside the values); 330,000 compounds, 0.33% hits; AID 588478, 2011;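 active means mean of two replicates above 20%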;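 further: 0% = compound-free wells with enzyme and 100% = wells lacking proteasome; stock transfer was 100 nL into about 20 µL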
Target sequence (Q9Y5K5 whole entry, looked up): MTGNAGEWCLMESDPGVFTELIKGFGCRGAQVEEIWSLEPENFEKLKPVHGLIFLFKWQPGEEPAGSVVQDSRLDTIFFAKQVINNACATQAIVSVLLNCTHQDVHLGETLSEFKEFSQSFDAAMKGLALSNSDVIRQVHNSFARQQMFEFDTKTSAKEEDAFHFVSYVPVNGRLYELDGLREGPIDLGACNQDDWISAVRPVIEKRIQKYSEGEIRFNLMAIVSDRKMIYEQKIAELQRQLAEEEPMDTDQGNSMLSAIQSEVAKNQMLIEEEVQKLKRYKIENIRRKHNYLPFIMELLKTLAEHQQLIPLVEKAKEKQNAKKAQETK
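Material: Human UCH37 enzyme supplied as purified proteasome complex | Schedule: 30 min compound-proteasome preincubation then 25 min substrate reaction, room temperature | Detection: AMC fluorescence from Ub-AMC cleavage, excitation 355 nm, emission 460 nm | Benchmarks: Wells without proteasome as full block, compound-free enzyme plus substrate as uninhibited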
Vif A3G – inhibitors of Vif binding to APOBEC3G peptide, primary screen, biochemical, TR-FRET, GST-Vif 1-94, biotin-A3G peptide, dose response retest (AID 1117319). Virion infectivity factor (Human immunodeficiency virus type 1 group M subtype B (isolate …. TR-FRET GST-Vif / biotin-A3G peptide binding; higher % means a stronger effect; test concentration not given here; strong numbers were not always called active. one-dose inhibition, %; IC50 in µM for titrated hits. 260,000 compounds, 0.57% hits;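 active means above the screen mean plus three standard deviations and confirmed in dose response; inconclusive means results disagree or hit not tested in dose response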;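 further: Vif residues 1-94 fused to GST binding biotinylated APOBEC3G peptide 110-148; 0% = full assay without inhibitor and 100% = GST in place of GST-Vif; retest series ran down from 100 µM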
E coli growth – E. coli growth inhibition, primary screen, OD600 | OD600 absorbance (concentration not given with the values) | 330,000 compounds, 0.21% hits | Escherichia coli growth, 23 h; active compounds read low;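 active means OD600 absorbance below the run mean of sample wells minus 3.6 SD, in any replicate, cut at about 0.56 in these data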;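 further: stock transfer was 300 nL into about 60 µL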
HNF4A DNA FP – change in binding of human HNF4A to DNA, primary screen, biochemical, fluorescence polarization, FITC-DNA; Hepatocyte nuclear factor 4-alpha (Homo sapiens), P41235; AID 1224865, 2016; 1 h; activity change, % at 10 µM; 360,000 compounds, 0.3% hits; in the data active means activity change above about 30%, passing the limit was not always enough;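 further: controls were the assay level and a saturating level of protein; the project sought stronger binding though the title names inhibitors; some compounds called inactive have numbers as strong as hits; positive values seem to mean higher polarization but the record does not say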
Target sequence (P41235 whole entry, looked up): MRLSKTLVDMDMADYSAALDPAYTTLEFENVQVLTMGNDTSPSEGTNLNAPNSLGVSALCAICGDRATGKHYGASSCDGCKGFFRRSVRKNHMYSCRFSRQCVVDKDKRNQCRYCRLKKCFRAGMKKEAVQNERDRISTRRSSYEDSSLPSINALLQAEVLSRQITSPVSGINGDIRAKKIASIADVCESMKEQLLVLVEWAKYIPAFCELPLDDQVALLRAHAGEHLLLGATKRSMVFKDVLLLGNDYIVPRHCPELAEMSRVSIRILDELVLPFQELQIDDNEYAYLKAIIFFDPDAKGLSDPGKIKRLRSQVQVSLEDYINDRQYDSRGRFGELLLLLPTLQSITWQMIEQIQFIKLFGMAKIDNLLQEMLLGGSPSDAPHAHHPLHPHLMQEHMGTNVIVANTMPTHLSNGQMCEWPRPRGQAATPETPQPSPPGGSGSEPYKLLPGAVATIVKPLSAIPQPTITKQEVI
The depositor's hits bear a star; i = inactive; ? = inconclusive; · = no result given; & = joins results of further samples. Only part of the results is shown. The share of hits here may be higher or lower than overall.

Values in the order: MLL AF4-AF9 inh	FGF22 binding	RanGTP-Impb inh	UCH37 inh	Vif A3G	E coli growth	HNF4A DNA FP
CCOC(=O)CC(C#N)c1c[nH]c2ccccc12 (stereo unspecified)
    ·	·	?	1.1	2%	0.67	2.8
Cc1cc(NC(=O)c2ccc(NC(=O)CC(C)C)cc2)no1
    ·	·	3.8	4.1	1%	0.69	-0.4
Cc1c(C)[n+](=O)c2c(n1[O-])CCCCC2
    ·	·	-2.0	1.1	3%	0.71	-3.3
O=C(NC1CCCCC1)N1CCN(c2ccc(Cl)cc2)CC1
    2.5	i	1.2	3.1	-8%	0.74	4.3
CC(C)(C)n1nnnc1C(c1ccccc1)N1CCN(C(=O)c2ccco2)CC1 (stereo unspecified)
    -3.1	i	·	·	·	·	-3.1
COc1ccc(C2c3c(oc4ccccc4c3=O)C(=O)N2c2ccccn2)cc1OC (stereo unspecified)
    -1.2	i	0.2	5.4	-8%	0.73	-3.5
CC(=O)c1ccc(N2CCN(C(=O)c3c(-c4ccccc4Cl)noc3C)CC2)cc1
    -3.3	i	-1.6	-0.8	·	0.72	1.9
COc1ccc(NC(=O)COc2cccc3c2CCN(Cc2cccnc2)C3=O)c(OC)c1
    -0.2	i	-3.6	3.6	·	0.67	-2.4
CC(C)=CC(=O)N1CCCc2ccccc21
    ·	·	-0.1	2.3	0%	0.67	2.0
Cc1ccc(-c2nc3ccc(Br)cn3c2Cc2cccc(Cl)c2)cc1
    0.4	i	·	·	·	·	9.6
COc1ccc(/C=C/C(=O)c2ccc3ccccc3c2O)cc1CN1CCOCC1
    ·	·	2.6	-3.5	·	·	-3.0
COc1cccc(C(=O)Nc2c3c(nn2-c2ccc(Cl)cc2)CS(=O)(=O)C3)c1OC
    2.0	i	5.2	2.7	?	0.67	-1.4
O=C(c1cccc(C(F)(F)F)c1)C1CCCN(C(=O)CCc2cnccn2)C1 (stereo unspecified)
    -3.3	i	-0.3	1.0	-9%	0.69	0.9
Cc1nc(N)c(Cc2ccccc2F)c(N)n1
    -2.5	i	-1.5	1.3	-7%	0.64	-1.0
CCCCCCOC(=O)c1ccccc1NC(=O)/C=C/C(=O)O
    ·	·	5.8	0.0	-1%	0.7	0.7
Cn1c(SCC(=O)Nc2ccc(Cl)cc2F)nnc1-c1ccco1
    -0.7	i	-1.1	3.0	·	0.69	2.4
Brc1ccc(C2Nc3cccc4cccc(c34)N2)s1
    -1.0	i	·	9.9	·	0.72	-1.1
CCOc1cc(/C=N/NC(=O)COc2ccccc2C)ccc1OC(=O)c1cccs1
    ·	·	1.8	·	2%	·	-1.8
O=C(c1c(Cl)cccc1Cl)N1CCN(c2cccc3[nH]ccc23)CC1
    ·	i	-2.6	0.3	8%	0.7	-2.9
Cc1ccccc1/C(N)=N/OC(=O)/C=C/c1ccccc1
    ·	·	0.2	3.5	25%	0.66	-0.3
Nc1nc(-c2cccnc2)nn1C(=O)c1ccc(Cl)cc1
    -1.2	i	0.3	0.5	?	0.67	2.8
Cc1noc(C)c1C(=O)N1CCN(C(=O)c2sc3cc(Cl)ccc3c2Cl)CC1
    ·	·	?	5.9	8%&2%	0.67	-0.9
CC(=O)c1cccc(NC(=O)C2CCN(S(C)(=O)=O)CC2)c1
    -1.4	i	-1.1	-3.6	2%	0.7	1.2
CCc1nc(NCC2CC2)c2nnn(Cc3ccccc3)c2n1
    0.0	i	·	·	1%	·	0.7
S=C(NCC1CCCO1)n1nnc2ccccc21 (stereo unspecified)
    ·	·	5.5	-0.8	·	0.7	·
O=C(Cc1cccs1)N/N=C/c1ccccc1
    -1.0	i	-0.2	·	3%	·	3.5
CCOC(=O)c1ccc(NC(=O)CC2SCCNC2=O)cc1 (stereo unspecified)
    ·	·	0.5	1.8	-2%	0.66	0.1
COC(=O)/C=C1\SC(=NC(=O)c2cccc(Cl)c2)NC1=O
    0.9	i	-1.5	3.1	?	0.67	-0.5
CCN(c1ccccc1)S(=O)(=O)c1ccc(OCC(F)(F)F)c(NC(=O)c2ccc(=O)[nH]c2)c1
    -1.2	i	·	·	·	·	5.9
COCc1cccc(C2=CC(=O)C[C@H](c3ccc(OC)cc3)C2)c1
    -3.4	i	·	-2.9	·	·	-0.7
CC(=O)N(C)c1ccc(NC(=O)C(Sc2ccccc2)c2ccccc2)cc1 (stereo unspecified)
    0.9	·	-4.4	3.5	·	0.69	2.7
Cc1ccc(C(=O)OCC(=O)NNC(=O)COc2ccc(Cl)cc2)c(O)c1
    -1.7	i	2.1	2.1	6%	0.68	-0.6
CCCCCCCCCC(=O)N[C@@H]1c2cc(OC)c(OC)cc2C[C@H]1O
    -3.8	i	·	1.2	-3%	0.69	-0.2
CC[C@@](C)(NS(=O)(=O)OCC(Cl)(Cl)Cl)c1ccccc1
    0.9	i	1.1	·	·	·	0.3
O=C(Nc1ccc2c(c1)OCCO2)C1CCCC1
    2.1	i	·	1.2	-3%	0.7	0.0
Cc1nc(-c2ccccn2)nc(SCC(=O)c2ccc(F)cc2)c1Cl
    -3.2	i	2.4	2.3	·	0.71	-0.9
CN(Cc1ccccc1)C(=O)COC(=O)Cn1cnc2ccccc21
    -1.2	i	2.6	1.5	3%	0.72	2.5
Cc1ccc(NC(=S)N(CCN(C)C)C(C)c2cccnc2)cc1 (stereo unspecified)
    2.0	i	2.1	1.8	23%	0.66	0.9
O=C(NC1CCS(=O)(=O)C1)c1cccc(S(=O)(=O)N2CCOCC2)c1 (stereo unspecified)
    ·	·	4.2	0.9	-2%	0.66	-3.2
CC12CCC(=O)N1C(C(=O)NNC(=O)c1ccc(Cl)cc1)CS2 (stereo unspecified)
    -2.8	i	·	2.3	10%	0.61	-0.3
O=C(O)CCc1nn2c3ccccc3n(Cc3ccccc3F)c2nc1=O
    -0.7	·	0.7	-70	-5%	0.68	1.7
O=C(O)CCCCCN=C1CCc2ccccc2N1
    0.4	·	2.1	1.0	-2%&14%	0.69	-1.0
O=[N+]([O-])/C(=C\Nc1ccccc1)S(=O)(=O)c1ccccc1
    ·	·	5.0	4.4	-3%	·	-7.1
O=C(Cc1ccccc1)c1c[nH]c(C(=O)O)c1
    -3.6	·	·	2.8	·	0.71	3.0
CCc1ccccc1N(CC(=O)N/N=C/c1ccc(OC(=O)OC)c(OC)c1)S(C)(=O)=O
    ·	·	7.9	·	-1%	·	-0.2
Cn1ccnc1C1CCCCN1C(=O)c1cc(COc2ccc(F)cc2Cl)on1 (stereo unspecified)
    6.7	i	0.6	1.0	5%	0.69	3.0
Cc1nc(NCCc2ccc(S(N)(=O)=O)cc2)c2c3c(sc2n1)CCC3
    ·	·	5.4	-1.2	-8%	0.75	11
COc1cc(OC)c(C(=O)OCC(=O)Nc2c(C)n(C)n(-c3ccccc3)c2=O)cc1OC
    8.9	i	·	5.4	·	0.67	-3.7
Cc1ccccc1NC(=S)NCC(c1cccnc1)N(C)C (stereo unspecified)
    0.7	i	8.9	3.6	·	0.7	-3.0
CC1CN(CCCSc2ccc(Cl)cc2)CC(C)O1 (stereo unspecified)
    3.1	·	-1.7	4.2	-8%	0.72	3.0
COCCCN1C(=O)c2ccc(C(=O)OCC(=O)NCc3ccccc3OC)cc2C1=O
    -0.7	i	-0.4	·	·	·	3.0
CCOc1ccc(NC(=O)c2cc3c(C)nc4ccccc4c3o2)cc1
    -3.3	i	0.3	-0.8	-13%	0.74	3.2
CCOC(=O)Nc1ccc(Cc2ccncc2)cc1
    0.2	i	1.4	·	·	·	1.4
NC(=O)c1cnn(C2CCS(=O)(=O)C2)c1 (stereo unspecified)
    0.3	i	5.4	1.9	-2%	0.73	1.3
O=C1CCC(C(=O)NCc2ccc3c(c2)OCO3)N1 (stereo unspecified)
    -1.7	i	3.3	2.3	-5%	0.66	-5.2
CN(CC(=O)Nc1ccc(OC(F)(F)F)cc1)S(=O)(=O)c1cnc[nH]1
    0.5	i	-0.1	1.4	·	0.67	9.5
Cc1ccc(C(CC(=O)c2ccco2)SCCO)cc1 (stereo unspecified)
    ·	·	?	1.5	-3%	0.68	-1.8
CNc1cncc(-c2ccc(F)c(F)c2)n1
    0.2	i	·	·	·	·	-2.0
O=C(CCCn1c(=S)[nH]c2cc3c(cc2c1=O)OCO3)N1CCN(c2ccccn2)CC1
    ·	·	·	2.4	-29%&-16%	0.73	-1.0
COc1ccc(-c2noc(CSc3nc4ccccc4c(=O)n3-c3ccccc3)n2)cc1
    ·	·	4.0	1.1	-12%	0.71	-4.0

More records.
Values in the order: MLL AF4-AF9 inh	FGF22 binding	RanGTP-Impb inh	UCH37 inh	Vif A3G	E coli growth	HNF4A DNA FP
CN(C(=O)CSc1nc2ccccc2c(=O)n1-c1ccccc1F)C1CCS(=O)(=O)C1 (stereo unspecified)
    0.2	i	·	0.7	-6%	0.67	2.9
Cn1c(NNC(=O)C2CCCCC2)cc(=O)n(C)c1=O
    -1.2	i	?	2.5	4%	0.68	4.4
Cc1ccc(S(=O)(=O)NC2CC(=O)N(c3ccc4c(c3)OCCO4)C2)cc1 (stereo unspecified)
    -9.6	·	-0.2	0.6	1%	0.69	-1.2
COc1cccc(C(=O)N2CCC[C@H]2C(=O)N2CCC[C@H]2C(=O)N[C@H](C)c2ccccc2)c1
    -0.2	i	·	·	·	·	-2.0
CC(C)c1nnc(NC(=O)CSc2nnc(NC(=O)c3c(F)cccc3F)s2)s1
    -3.0	i	-1.1	-2.0	·	0.67	3.9
Cc1ccc(NC(=O)CN(C)C(=O)C2CC(=O)N(Cc3ccccc3)C2)cc1 (stereo unspecified)
    1.3	i	3.0	3.2	·	0.7	1.0
COc1ccccc1N1CC(C(=O)OCC(=O)Nc2cc(C)on2)CC1=O (stereo unspecified)
    1.4	i	·	-1.2	5%	0.63	-2.0
Cc1cc(C(=O)c2cnc(/N=C/N(C)C)s2)cc(C)c1O
    ·	·	5.0	·	-7%	·	-0.7

Just E coli growth and RanGTP-Impb inh (2 entries from above):
SMILES,E coli growth,RanGTP-Impb inh
O=C(CCCn1c(=S)[nH]c2cc3c(cc2c1=O)OCO3)N1CCN(c2ccccn2)CC1,0.73,·
COc1ccc(-c2noc(CSc3nc4ccccc4c(=O)n3-c3ccccc3)n2)cc1,0.71,4.0
